AF4-AF9 inh: blocks AF4 peptide binding to human AF9 | P42568 | AlphaScreen, biotin-AF4 peptide binding to FLAG-AF9 | inhibition, % at 10 µM | 350,000 compounds, 0.47% hits;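 active means every replicate reaching a set inhibition limit, whatever the replicate mean, cut at about 25% in these data; inconclusive means mean inhibition reaches that limit but some replicates miss it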;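 further: 0% = plate neutral control median and 100% = total signal loss; the record names both 10 and 1 µM as test concentration; the first replicate is given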
Target sequence (P42568 whole entry, looked up): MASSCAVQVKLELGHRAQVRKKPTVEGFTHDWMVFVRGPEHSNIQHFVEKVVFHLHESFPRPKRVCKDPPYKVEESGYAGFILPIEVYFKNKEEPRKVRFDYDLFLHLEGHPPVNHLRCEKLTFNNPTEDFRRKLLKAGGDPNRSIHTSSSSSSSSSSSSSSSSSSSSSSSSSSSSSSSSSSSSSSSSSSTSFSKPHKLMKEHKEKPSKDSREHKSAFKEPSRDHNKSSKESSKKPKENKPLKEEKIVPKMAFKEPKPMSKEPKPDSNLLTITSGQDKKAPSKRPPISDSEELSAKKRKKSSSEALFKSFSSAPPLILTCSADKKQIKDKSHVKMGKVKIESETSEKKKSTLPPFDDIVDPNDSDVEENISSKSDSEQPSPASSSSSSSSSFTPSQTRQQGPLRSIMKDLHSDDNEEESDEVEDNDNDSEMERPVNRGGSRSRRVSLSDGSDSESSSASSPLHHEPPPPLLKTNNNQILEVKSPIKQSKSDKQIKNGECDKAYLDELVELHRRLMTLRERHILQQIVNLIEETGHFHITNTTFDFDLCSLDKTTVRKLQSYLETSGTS
Calb FLC: C. albicans growth modulation with fluconazole. C. albicans CaCi-2 (fluconazole-resistant clinical isolate) + fluconazole, Alamar Blue growth, 48 h. growth inhibition, % (concentration not given with the values). 300,000 compounds, 0.57% hits. AID 1979;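 active means most replicates above 75%; inconclusive means exactly half above 75%; inactive means most below 75%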;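 further: all wells also contain fluconazole at 8 µg/ml as a sub-toxic cotreatment; 0% = median of DMSO wells and 100% = median of geldanamycin control wells; wells of about 8 µL received 7.5 nL stock; the first replicate is given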
RanGTP-Imp inh: disruptors of Ran-importin-beta complex formation – biochemical, FRET, CFP-Ran, YFP-importin-beta, homogeneous, primary screen; cell-free CFP-Ran/YFP-importin-beta FRET ratio; inhibition, % (no concentration beside the values); 300,000 compounds, 1.1% hits;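 active means most replicates above 15%; inconclusive means exactly half above 15%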;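 further: 0% = DMSO wells and 100% = Ran loaded with GDP instead of GTP; wells of about 40 µL received 100 nL stock; the first replicate is given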
Ecoli rRNA inh: inhibits bacterial ribosomal RNA function over humanized ribosomes. GFP signal change (wild-type ribosome), % (no concentration beside the values). 350,000 compounds, 1.6% hits. E. coli WT GFP vs humanized-ribosome RFP mutants, fluorescence, 24 h; hits give low values; DMSO median 0, no signal -100;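 active means significant combined selectivity score with lowered wild-type GFP, culture density cut under 30%, mutant RFP and density less affected; inactive means any of these conditions unmet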; further: one replicate is shown; some compounds called inactive have numbers as strong as hits
T cruzi repl: blocks replication of Trypanosoma cruzi. 300,000 compounds, 1.4% hits. inhibition, % (test concentration not listed). T. cruzi beta-gal in NIH3T3, luminescence, 90 h;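 active means mean inhibition across valid replicates above about 55%, limit read from the data; inconclusive means mean below that limit but half or more replicates reach it; inactive means mean below it, under half of replicates reach it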;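 further: signal also drops with host cell toxicity which is not excluded here; 0% = plate median of DMSO wells and 100% = zero luminescence signal; higher percent means less beta-gal luminescence so fewer parasites; stock transfer was 50 nL into about 50 µL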
FGF22 binding: binders of recombinant human FGF22 by thermal shift; Q9HCT0; SYPRO orange fluorescence; percent of sucrose octasulfate shift, DMSO zero; calls only at 9.99 µM; 340,000 compounds, 1.5% hits; AID 651658;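 active means melting point raised past a set limit in the mean and every replicate; inconclusive means no clear call; three in four hits are not shown here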
Target sequence (Q9HCT0 whole entry, looked up): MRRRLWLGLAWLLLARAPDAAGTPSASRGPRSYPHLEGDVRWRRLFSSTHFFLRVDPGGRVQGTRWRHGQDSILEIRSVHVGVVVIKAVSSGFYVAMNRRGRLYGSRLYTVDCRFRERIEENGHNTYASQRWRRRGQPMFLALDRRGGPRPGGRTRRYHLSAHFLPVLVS
Beta apoptosis: beta cell apoptosis inhibition | INS-1E cytokine-induced death, ATP luminescence, 48 h; percent of positive-control rescue, neutral wells zero | protection from apoptosis, % (concentration not given with the values) | 300,000 compounds, 0.8% hits | AID 435005;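 active means all replicates at 75% or more, or half of them and the mean; inconclusive means half reach 75% but not the mean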;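 further: 0% = cytokine-treated negative control wells and 100% = positive control rescue; higher means more ATP so stronger rescue from cytokine killing; wells of about 40 µL received 100 nL stock; the first replicate is given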
ALR inh: blocks human ALR sulfhydryl oxidase activity; inhibition, % (no concentration beside the values); AID 485317; P55789; 290,000 compounds, 3.8% hits; purified ALR, DTT oxidation, H2O2 HRP-luminol luminescence;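 active means mean and each replicate at 75% or more; inconclusive means only one of the two met; inactive means neither met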;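 further: stock transfer was 7.5 nL into about 7.5 µL; 0% = neutral wells and 100% = wells with inactivated enzyme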
Target sequence (P55789 whole entry, looked up): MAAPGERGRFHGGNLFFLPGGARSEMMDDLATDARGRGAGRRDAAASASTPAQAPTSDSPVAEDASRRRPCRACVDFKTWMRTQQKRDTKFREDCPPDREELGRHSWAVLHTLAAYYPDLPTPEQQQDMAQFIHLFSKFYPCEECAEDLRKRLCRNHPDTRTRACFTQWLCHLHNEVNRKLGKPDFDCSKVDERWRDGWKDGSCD
Ecoli rRNA inh OD600: recorded beside Ecoli rRNA inh, whose call it bears; OD600 change, %; measured here: OD600 growth;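 optical density of the mix in the first replicate; 0 = DMSO median and -100 = no signal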
Ecoli rRNA inh RFP: second read-out of Ecoli rRNA inh, no call of its own (marks repeat the call); RFP signal change, %; measured here: RFP humanized mutant strains;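 first replicate; 0 = DMSO median and -100 = no signal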
* hit, by the source's call; i = inactive; ? = inconclusive; . = no result given; & = joins results of further samples. Not all compounds are listed, so the mix of outcomes need not match the whole.

Every second line gives: AF4-AF9 inh	Calb FLC	RanGTP-Imp inh	Ecoli rRNA inh	Ecoli rRNA inh OD600	Ecoli rRNA inh RFP	T cruzi repl	FGF22 binding	Beta apoptosis	ALR inh
#1 c1ccc(-c2onc(-c3ccco3)c2-c2ccc3c(c2)OCO3)cc1
→ 1.0	-2	-3.1	4	14	-0.8	-10	i	-1	27
#2 O=C(NCC1CCCO1)c1coc2nc3ccccc3nc12 (stereo not given)
→ .	-2	4.7	.	.	.	-7	.	-2	3
#3 Cc1ccc(NC2c3ncccc3C(=O)N2c2ccccc2C)cc1C (stereo not given)
→ .	-11	?	.	.	.	5	.	1	22
#4 Oc1ccccc1/C=N/n1cnn(Cc2ccccc2Cl)c1=S
→ -8.3	-9	-1.2	1	1	-2.5	-18	i	-16	2
#5 CSc1ccccc1NC(=O)c1cc(CC(C)C)on1
→ -1.3	-4	0.0	1	3	-3.0	0	i	-1	-4
#6 O=C(NCCc1nc2ccccc2[nH]1)/C(=C/c1ccco1)NC(=O)c1ccccc1Br
→ 1.5	-5	-1.4	13	8	-1.7	2	i	0	40
#7 Cn1c(SCC(=O)Nc2cccc(F)c2)nc2c([nH]c3ccccc32)c1=O
→ -0.8	20	-0.9	14	10	1.5	-36	i	10	-27
#8 Cc1ccc(NC2=C/C(=N/S(=O)(=O)c3cccs3)c3ccccc3C2=O)cc1
→ 4.5	28	-0.7	.	.	.	46	i	103*	-82
#9 Cc1ccc(CN2CCN(/N=C/c3sccc3C)CC2)c(C)c1
→ .	-4	?	.	.	.	11	.	-12	2
#10 CC1c2ccsc2CCN1S(=O)(=O)c1cccs1 (stereo not given)
→ -8.0	6	-0.9	-29*	-16*	0.6*	-7	i	-3	0
#11 CCCCc1nnc(NC(=O)CSCc2cc(=O)n3ccsc3n2)s1
→ 0.0	1	-2.1	3	7	-0.3	-4	i	0	1
#12 CCOc1ccccc1N(CC(=O)Nc1ccc2c(c1)OCO2)S(C)(=O)=O
→ .	?	-1.1	.	.	.	-4	.	-4	-17
#13 O=C(Nc1c(O)c2ccccc2[nH]c1=O)c1ccco1
→ -21	-3	-0.2	7	-3	-5.0	-10	i	-2	-3
#14 O=C(Cc1cccs1)N(c1ccc(F)cc1)C1(C(=O)NC2CCCCC2)CCCC1
→ -4.8	12	2.0	-12	-9	-4.4	-3	i	2	-4
#15 O=C1CC2(CCN(C(=O)c3cccc(Br)c3)CC2)Oc2ccccc21
→ -0.1	2	?	-5	-21	-0.7	2	i	2	-1
#16 CC1c2[nH]c3ccccc3c2CCN1S(C)(=O)=O (stereo not given)
→ .	-7	3.6	.	.	.	2	.	-4	50
#17 COc1ccc2c(C)cc(SCC(=O)c3ccc4c(c3)OCO4)nc2c1
→ .	0	3.5	.	.	.	59*	.	-3	99*
#18 Nc1ccc2nc(SCC(=O)Nc3ccc(N4CCOCC4)c(Cl)c3)sc2c1
→ .	-5	1.9	.	.	.	2	.	5	99*
#19 O=C(c1cccs1)N1CCN(Cc2ccncc2)CC1
→ .	2	0.0	.	.	.	-7	.	-3	-3
#20 Cn1c(=O)c2c(nc3n2CC(COc2ccccc2)O3)n(C)c1=O (stereo not given)
→ -0.5	18	-1.8	3	3	1.6	-1	i	20	4
#21 COc1ccccc1C(=O)Nc1ccc(N2CCN(Cc3ccccc3)CC2)cc1
→ .	-7	-1.3	.	.	.	26	.	7	1
#22 CC(C)CSc1nnc2c(n1)[nH]c1ccccc12
→ .	-9	-1.2	.	.	.	1	.	-1	-11
#23 Cc1ccc(-c2cc(C(F)F)n3ncc(C(=O)Nc4cn(C)nc4C)c3n2)cc1
→ -1.8	10	0.0	0	4	-0.6	12	i	10	-4
#24 O=C(COc1ccccc1O)Nc1ccccc1Cl
→ .	23	?	.	.	.	-2	.	2	55
#25 COc1ccc(C2C(CN3CCOCC3)C(=O)N2c2ccccc2)cc1 (stereo not given)
→ 0.2	42	-1.3	8	6	-0.6	1	i	-3	3
#26 COc1ccc(-c2cc(C(F)(F)F)c3c(N)c(C(=O)NCCSC)sc3n2)cc1
→ -1.6	53	-149	21	2	0.8	6	i	.	22
#27 O=C(Nc1ccccc1)C1=C[C@@H](c2ccc(C(F)(F)F)cc2)C[C@@H](OCCCCO)O1
→ 3.7&-0.5	8	3.1	11	6	0.3	27	i	-4	-5
#28 O=C(Nc1ccc(F)cc1)Nc1ccc(NC(=O)c2ccccc2O)cc1
→ -1.7	12	5.2	-1	7	0.3	-3	i	-22	-1
#29 C=CCCCCCCCCc1nc(SCC(=O)O)n[nH]1
→ -0.4	-3	3.3	8	13	3.7	-11	.	0	.
#30 COc1cccc(C2C(C(=O)c3sc(C)nc3C)=C(O)C(=O)N2CCN2CCOCC2)c1 (stereo not given)
→ .	1	?	.	.	.	-22	.	-7	2

31. Cn1c(CS/C(N)=N/N=C/c2ccccc2)c(Br)c(=O)n1-c1ccccc1
32. COc1cc(C2CC(=O)N3CN(c4ccccc4C)CSC3=C2C#N)cc(OC)c1OC (stereo not given)
33. CN1CCN(NC(=O)c2cn(-c3ccccc3)nc2-c2cccc(Br)c2)CC1
34. CCOC1(C(F)(F)F)NC(=O)N(Cc2ccc(OC)cc2)C1=O (stereo not given)
35. CCCCOc1ccccc1C1CC(=O)NC2=C1C(=O)CCC2 (stereo not given)
36. COc1ccc2cc3cc(C(=O)N4CCN(Cc5ccc6c(c5)OCO6)CC4)oc3nc2c1
37. Cc1ccc(N(Cc2ccccc2)C(=O)c2cccc(S(=O)(=O)N3CC(C)OC(C)C3)c2)cc1 (stereo not given)
38. COc1ccc(C(O)Cc2nc3ccccc3n2C)cc1OC (stereo not given)
compound no.,31,32,33,34,35,36,37,38
AF4-AF9 inh,.,.,-0.5,.,.,.,0.4,.
Calb FLC,1,?,5,-9,4,-8,5,-8
RanGTP-Imp inh,1.4,3.0,-1.1,-0.5,2.8,2.8,4.0,1.8
Ecoli rRNA inh,.,.,-37,.,.,.,-7,.
Ecoli rRNA inh OD600,.,.,-44,.,.,.,-9,.
Ecoli rRNA inh RFP,.,.,-5.0,.,.,.,-0.4,.
T cruzi repl,17,-4,56*,-15,-22,21,19,0
FGF22 binding,.,.,i,.,.,.,i,.
Beta apoptosis,5,1,7,0,8,-5,8,-7
ALR inh,98*,-16,23,-8,3,-4,-13,-11

Looked up above.
ALR inh result of cpd 35 → 3
T cruzi repl result of cpd 31 → 17
Calb FLC result of cpd 34 → -9
RanGTP-Imp inh result of cpd 36 → 2.8

(next part)
39. CC(=O)N[C@@H](Cc1c[nH]c2ccccc12)C(=O)NC1CC1
40. COC(=O)c1cnc(NNC(=O)c2ccc([N+](=O)[O-])cc2)nc1C(F)(F)F
41. COc1ccc(C([O-])=Nc2ccc[n+](-c3nc4ccccc4nc3NS(=O)(=O)c3ccccc3)c2)cc1
42. CCOc1ccc(NC(=O)CCN2C(=O)CSc3ccccc32)cc1
43. Cc1cc(N2CCN(S(=O)(=O)c3ccc4ccccc4c3)CC2)n2ncnc2n1
44. Cc1nc2nc(-c3ccccc3)cc(=O)n2[nH]1
45. N=c1c2c3c(sc2ncn1Cc1ccccc1)CCCC3
46. COc1ccc(S(=O)(=O)N2CCC(C(=O)N[C@@H](C)C(=O)N3CCCCCC3)CC2)cc1
compound no.,39,40,41,42,43,44,45,46
AF4-AF9 inh,-3.6,.,5.6,-18,2.0,.,.,-2.3
Calb FLC,-8,-3,20,.,23,3,8,0
RanGTP-Imp inh,-1.2,3.3,-0.2,.,4.8,1.0,-0.3,1.2
Ecoli rRNA inh,13,-4,-4,-4,-3,.,.,14
Ecoli rRNA inh OD600,0,-2,-13,-21,2,.,.,3
Ecoli rRNA inh RFP,-1.9,-1.4,5.1,-0.1,2.0,.,.,3.2
T cruzi repl,-3,-4,-11,.,7,5,-24,-9
FGF22 binding,i,i,i,i,i,.,.,i
Beta apoptosis,-9,6,0,8,10,.,5,-1
ALR inh,-17,0,12,-1,2,0,-7,-16

47. CCOC(=O)c1oc2nc(C(C)C)c3c(c2c1N)CCC3
48. Cc1ccc(C)c(-n2c(SCC(=O)NC(C(=O)O)C(C)C)nnc2-c2cccc(Cl)c2)c1 (stereo not given)
49. O=C(Nc1cccc(F)c1)c1cccnc1NCCc1ccccc1
50. Cc1ccccc1Nc1cc(C(=O)NCc2ccco2)c2ccccc2n1
51. C1=C(c2ccccc2)Nc2ccccc2N=C1c1ccccc1
52. C/C(=C\C(=O)Nc1nccs1)c1ccccc1
53. O=C(Nc1nnc(S(=O)(=O)N2CCCC2)s1)c1cccc([N+](=O)[O-])c1
compound no.,47,48,49,50,51,52,53
AF4-AF9 inh,.,-2.4,.,.,.,.,.
Calb FLC,8,2,-2,-3,10,3,28
RanGTP-Imp inh,-2.8,1.7,-0.1,-1.3,2.4,1.6,?
Ecoli rRNA inh,.,-2,.,.,.,.,.
Ecoli rRNA inh OD600,.,-13,.,.,.,.,.
Ecoli rRNA inh RFP,.,0.0,.,.,.,.,.
T cruzi repl,-11,-12,23,6,1,-5,-11
FGF22 binding,.,i,.,.,.,.,.
Beta apoptosis,-3,17,.,10,5,-2,-2
ALR inh,-17,-11,-2,-6,.,-6,4

Exported with tabs: entries from further up
item	Structure	AF4-AF9 inh	Calb FLC	RanGTP-Imp inh	Ecoli rRNA inh	Ecoli rRNA inh OD600	Ecoli rRNA inh RFP	T cruzi repl	FGF22 binding	Beta apoptosis	ALR inh
50	Cc1ccccc1Nc1cc(C(=O)NCc2ccco2)c2ccccc2n1	.	-3	-1.3	.	.	.	6	.	10	-6
51	C1=C(c2ccccc2)Nc2ccccc2N=C1c1ccccc1	.	10	2.4	.	.	.	1	.	5	.
52	C/C(=C\C(=O)Nc1nccs1)c1ccccc1	.	3	1.6	.	.	.	-5	.	-2	-6
53	O=C(Nc1nnc(S(=O)(=O)N2CCCC2)s1)c1cccc([N+](=O)[O-])c1	.	28	?	.	.	.	-11	.	-2	4

Bioassay records deposited in PubChem by Broad Institute.
